# SARS PLP yeast: qHTS of Yeast-based Assay for SARS-CoV PLP; hit rate 0.19% among 330,000; S. cerevisiae expressing SARS-CoV PLpro, growth rescue; control for the full effect not named in the record; AID 485353, 2010; Potency, µM (series often up to 32.9 µM), without a hit: at the highest dose activity, positive = growth rescue; active means well fitted rising curve with a large enough effect; inconclusive means small, poorly fitted or top-dose-only effect; inactive means no such curve, though single readings can be large or run the other way; also: 0% is about no effect; nearly all actives have a fitted effect of over 55% in size; growth read by luminescence after 48 h
# Lassa entry inh: qHTS for Inhibitors of binding or entry into cells for Lassa Virus; Lassa virus pseudotype entry inhibition, cell reporter; control for the full effect not named in the record; Potency, µM (doses to about 37.9 µM), for inactives: at the highest dose activity change, negative = inhibition, most hits filed as inhibitors; hit rate 1.2% among 300,000; active means well fitted inhibition curve with a large enough effect; inconclusive means small, poorly fitted or top-dose-only effect, or effect the other way; inactive means flat fitted curve, though single readings scatter; tested in HEK293 cells; also: % is scaled to controls: 0 for no effect and ±100 for the full control effect; nearly all actives have a fitted effect of over 50% in size; luciferase read-out
# RE007 growth inh: qHTS Assay for Inhibitors of the HIV-1 protein Vpr; S. pombe RE007 Vpr strain, BacTiter-Glo ATP luminescence, 24 h; control for the full effect not named in the record; hit rate 0.21% among 360,000; Potency, µM (doses to about 92.2 µM), for inactives: top-dose activity change, negative = less growth; active = well fitted falling curve with a large enough effect; inconclusive = small, poorly fitted or top-dose-only effect; inactive = no such curve, though single readings can be large or run the other way;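 also: % is scaled to controls: 0 for no effect and ±100 for the full control effect; nearly all actives have a fitted effect of over 50% in size; the assay follows cell death caused by Vpr and the record does not say whether a fall means rescue or toxicity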
#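 Fission yeast RE007 carrying one integrated HIV-1 vpr copy, seeded at OD 0.01 in PMG+AL medium with 23 nL pinned compound. Grown 24 h at 30 degrees; viability read by BacTiter-Glo luminescence after 5 min.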
# StopGo reporter: High Throughput Screening for Foot and Mouth Disease Virus Antivirals | human cells with a luciferase reporter of 2A StopGo recoding; control for the full effect not named in the record | Potency, µM (highest dose often 57.9 µM), without a hit: at the top dose signal change, negative = less light | hit rate 1.2% among 410,000 | AID 1159524, 2015; active = well fitted falling curve with a large enough effect; inconclusive = small, poorly fitted or top-dose-only effect; inactive = no such curve, though single readings can be large or run the other way; tested in HEK293T cells; also: % is scaled to controls: 0 for no effect and ±100 for the full control effect; nearly all actives have a fitted effect of over 45% in size; luciferase light after 4 h
# Active calls of the source: *; ? = inconclusive; / = not tested or not shown; [ ] = dose if it differs, or a comment. Potency is read from the fitted curve at half-maximal effect. This is a subset (hit frequency here may not be typical).
cpd	canonical_smiles	SARS PLP yeast	Lassa entry inh	RE007 growth inh	StopGo reporter
1	COc1ccc(-c2noc(CCC(=O)N3CCN(c4ccccc4C(F)(F)F)CC3)n2)cc1	4.6%	/	5.3%	0.0%
2	Cc1cccc2nc(-c3ccco3)c(Nc3ccc4c(c3)OCCO4)n12	-5.8%	/	-9.0%	-14.4%
3	Cc1noc(C)c1C(=O)Nc1ccccc1N1CCOCC1	-5.0%	/	?	-11.1%
4	O=C(O)c1cccc(NC2=C(Cl)C(=O)c3ccccc3C2=O)c1	-1.3%	/	-8.8%	?
5	Cc1onc(-c2ccccc2)c1C(=O)N(C)CC(=O)Nc1ccc(F)c(F)c1F	-6.0%	/	-5.7%	-1.1%
6	C[C@H](NC(N)=O)C(=O)Nc1ccc(N2CCOCC2)c(S(=O)(=O)Nc2ccc(Cl)cc2)c1	-3.7%	/	-15.5%	54.5%[activator]
7	CC(=O)NC(C)c1ccc(C(=O)CSc2nnc(C3CC3)n2C2CC2)cc1 (stereo not drawn)	0.7%	/	1.7%	-20.1%
8	COC(=O)[C@]1(Cc2ccccc2)N[C@H](CN(C)C(=O)c2ccccc2)[C@@H]2C(=O)N(C)C(=O)[C@@H]21	11.2%	/	2.2%	0.0%
9	CC1CCCC(NC(=O)CN(C)CC(=O)Nc2ccc(F)cc2)C1C (stereo not drawn)	-2.5%	/	-2.7%	-17.1%
10	CCOc1ccc(NC(=O)c2ccc3c(c2)OCCO3)cc1S(=O)(=O)N(CC)CC	-1.5%	/	1.0%	-5.4%
11	O=[N+]([O-])c1cc(S(=O)(=O)N2CCCC2)ccc1OCCOc1ccccc1	-1.7%	/	-16.5%	-20.4%
12	COc1ccccc1C(=O)NCC(=O)NNC(=O)c1cccs1	-0.5%	/	2.9%	-0.5%
13	CCN(CC(=O)Nc1ccc(OC)cc1)C(=O)CSCc1c(C)noc1C	-0.8%	/	-3.1%	-16.1%
14	CS(=O)(=O)N(CC(=O)NN=C1CCCCCC1)c1ccc(Oc2ccccc2)cc1	-2.0%	/	18.2%	2.8%
15	Cc1ccc(CNC(=O)CSc2nnc3n2CCCCC3)cc1	-1.9%	/	-7.2%	-14.0%
16	CCCCNc1c(N)n(CC(C)C)c(=O)[nH]c1=O	-1.6%	/	12.6%	14.2%
17	O=C(CN1C(=O)NC2(CCc3ccccc32)C1=O)Nc1ccccc1C(F)(F)F (stereo not drawn)	-1.9%	/	18.3%	-13.8%
18	O=C(COC(=O)c1ccc(Cl)nc1)NCCc1ccc(F)cc1	-8.2%	/	-2.5%	-9.4%
19	Cn1cccc1C(=O)NNC(=O)COc1ccccc1Cl	0.4%	/	1.9%	22.1%
20	Cc1ccc2c(c1)c(N=Nc1cccc(C(=O)O)c1)c(O)n2C	3.8%	/	16.7%	-13.8%
21	CCOC(=O)C1(C)NC(c2ccco2)C2C(=O)N(c3ccccc3)C(=O)C21 (stereo not drawn)	2.6%	/	-8.3%	-14.1%
22	COC(=O)c1scc(C)c1NC(=O)C(Cl)c1ccccc1 (stereo not drawn)	-5.3%	/	-10.2%	-5.2%
23	O=C(c1ccc(Cl)c(S(=O)(=O)N2CCOCC2)c1)N1CCN(c2ccccn2)CC1	0.9%	/	-4.2%	-9.0%
24	CCOC(=O)c1c(C)[nH]c(C(=O)OCC(=O)NCc2ccccc2)c1C	0.3%	/	10.7%	20.6%
25	COc1ccccc1NC(NC(=O)c1cccnc1)C(Cl)(Cl)Cl (stereo not drawn)	-0.3%	/	-5.6%	-14.5%
26	O=[N+]([O-])c1ccccc1-c1cc(-c2ccccc2)cc(-c2ccccc2)[n+]1Cc1ccccc1Cl	-1.5%	/	-4.1%	?
27	CCN(CC(=O)Nc1c(F)cccc1F)C(=O)CC1CCCCC1	-3.5%	/	5.2%	-14.9%
28	CN(C)c1c2ccccc2nc2c(F)c(F)c(F)c(F)c12	-13.9%	/	-11.2%	28.2µM*
29	O=C(O)CC(NC(=O)C(c1ccccc1)c1ccccc1)c1ccc(F)cc1 (stereo not drawn)	4.0%	/	-17.3%	-10.3%
30	O=C(O)/C=C/C(=O)NCCC1=CCCCC1	1.3%	/	0.7%	-3.0%

# (continued)
cpd	canonical_smiles	SARS PLP yeast	Lassa entry inh	RE007 growth inh	StopGo reporter
31	CC1CC(C)CN(C(=O)/C=C/c2ccc([N+](=O)[O-])s2)C1 (stereo not drawn)	-5.4%	/	1.7%	?
32	C=CC[C@@H](CC(=O)N(CCO)Cc1ccccc1)C(=O)N[C@H](COC(=O)[C@@H](CC=C)Cc1ccc(F)cc1)Cc1ccccc1	12.5%	/	0.6%	?
33	Nc1ncnc2c1ncn2[C@@H]1O[C@H](CN=C2NS(=O)(=O)c3ccccc32)[C@@H](O)[C@H]1O	-4.0%	/	2.7%	0.0%
34	Nc1c(N(CCCO)C(=O)C2CCCCC2)c(=O)[nH]c(=O)n1Cc1ccccc1	-3.1%	/	15.4%	-17.5%
35	CCOC(=O)c1ccc(S(=O)(=O)N2CCC(C(=O)NCc3ccccc3OC)CC2)cc1	-1.8%	/	-1.1%	?
36	CCN(CC)C(=O)[C@H]1CC(CC(=O)NCCCn2ccnc2)C(=O)N2CCc3c([nH]c4ccc(OC)cc34)[C@]12C (stereo partly drawn)	0.9%	/	-21.4%	-24.3%
37	COc1ccc(C)cc1NC(=O)c1ccc2c(c1)C(=O)N(Cc1ccncc1)C2=O	2.2%	/	2.8%	-0.1%
38	CN(CCO)CCOCCOc1cccc2ccccc12	-2.8%	/	6.0%	-13.4%
39	NC(CSCc1cccc(Br)c1)C(=O)O (stereo not drawn)	-3.8%	/	-8.4%	7.8%
40	COc1ccc2c(c1)OC[C@H]1[C@H]2N2C(=O)c3cc(Cl)ccc3NC(=O)[C@@]2(C)[C@H]1c1ccccc1	2.3%	/	0.2%	-28.3%
41	CNC[C@@H]1Oc2ccc(NC(=O)Nc3c(C)noc3C)cc2CC(=O)N([C@H](C)CO)C[C@H]1C	11.2µM*	/	10.9%	-9.1%
42	CSc1nsc(/C=C/Nc2ccc(C)c(C)c2)c1C#N	-0.8%	/	-1.9%	56.5%[activator]
43	Cc1cccc(OCC(=O)OCC(=O)N2CCCc3ccccc32)c1C	-3.5%	/	-1.3%	-12.0%
44	CCCCN1C(=N)N([C@@H](C)CN2CCC[C@H]2CN2C(N)=NC[C@@H]2Cc2ccccc2)C[C@H]1Cc1ccccc1	3.1%	/	-9.3%	-10.8%
45	CN(C(=O)COC(=O)Cc1c(Cl)cccc1Cl)C1CCS(=O)(=O)C1 (stereo not drawn)	-9.6%	/	-2.4%	-4.3%
46	COc1ccccc1N1CCN(/N=C/c2cccc(OC)c2OC)CC1	-0.5%	/	-13.8%	25.7%
47	Cc1onc(-c2ccccc2)c1C(=O)NCCCc1ccccc1	4.6%	/	-3.3%	-11.6%
48	CNC(=O)c1ccc(NC(=O)/C=C/c2cccc(F)c2)cc1	-3.0%	/	10.6%	46.8%[activator]
49	N#Cc1ccc(OCC(=O)N2CCN(S(=O)(=O)c3ccc(Cl)s3)CC2)cc1	-0.4%	/	-4.8%	?
50	CC(C)(C)OC(=O)NCCCCCNC(=O)c1[nH]cnc1C(=O)N[C@@H](Cc1ccccc1)C(=O)OC(C)(C)C	-18.8%	/	-20.1%	-23.5%
51	COc1cc(Cl)c(C)cc1NC(=O)CC1SC(N2CCOCC2)=NC1=O (stereo not drawn)	3.0%	/	-9.8%	-13.0%
52	COc1cccc(CC(=O)OCC(=O)NCCc2ccc(F)cc2)c1	-6.3%	/	0.9%	4.2%
53	CC1CCCCC1NC(=O)COC(=O)CN1C(=O)c2ccccc2C1=O (stereo not drawn)	-8.9%	/	4.9%	-6.5%
54	Oc1ccc(C23CCCC2C2(CCCC2)c2ccc(O)cc2O3)c(O)c1 (stereo not drawn)	-0.8%	/	15.0%	-23.7%
55	Cc1ccc(NC(=O)CN(C)C(=O)COc2cccc3ccc(C)nc23)cc1	1.0%	/	-14.6%	-14.4%
56	CC(C)(C)OC(=O)N1CCCC(C(=O)Nc2cccc(C(=O)NCCc3ccccc3)c2)C1 (stereo not drawn)	/	?	6.9%	4.3%
57	COc1cccc(-c2ccc(CN3C(C)C(=O)N(Cc4cn(Cc5ccco5)nn4)CCS3(=O)=O)cc2)c1OC (stereo not drawn)	/	?	-1.2%	-18.7%
58	CC(C)(C)OC(=O)N1CCC(C(=O)Nc2cccc(C(=O)NC3CC3)c2)CC1	/	?	3.4%	-8.6%
59	Cn1ccc2c(-c3ccc(C(N)=O)cc3)cc3c(c21)C1CCC3O1 (stereo not drawn)	/	?	7.8%	-10.9%
60	C=CCN(CC=C)Cc1cc(=O)oc2ccc3ccccc3c12	/	?	-26.8%	13.9%

# An excerpt of these results, with one line to a screen.
47) Cc1onc(-c2ccccc2)c1C(=O)NCCCc1ccccc1
48) CNC(=O)c1ccc(NC(=O)/C=C/c2cccc(F)c2)cc1
49) N#Cc1ccc(OCC(=O)N2CCN(S(=O)(=O)c3ccc(Cl)s3)CC2)cc1
50) CC(C)(C)OC(=O)NCCCCCNC(=O)c1[nH]cnc1C(=O)N[C@@H](Cc1ccccc1)C(=O)OC(C)(C)C
51) COc1cc(Cl)c(C)cc1NC(=O)CC1SC(N2CCOCC2)=NC1=O (stereo not drawn)
52) COc1cccc(CC(=O)OCC(=O)NCCc2ccc(F)cc2)c1
53) CC1CCCCC1NC(=O)COC(=O)CN1C(=O)c2ccccc2C1=O (stereo not drawn)
54) Oc1ccc(C23CCCC2C2(CCCC2)c2ccc(O)cc2O3)c(O)c1 (stereo not drawn)
55) Cc1ccc(NC(=O)CN(C)C(=O)COc2cccc3ccc(C)nc23)cc1
56) CC(C)(C)OC(=O)N1CCCC(C(=O)Nc2cccc(C(=O)NCCc3ccccc3)c2)C1 (stereo not drawn)

assay / compound	47	48	49	50	51	52	53	54	55	56
SARS PLP yeast	4.6%	-3.0%	-0.4%	-18.8%	3.0%	-6.3%	-8.9%	-0.8%	1.0%	/
Lassa entry inh	/	/	/	/	/	/	/	/	/	?
RE007 growth inh	-3.3%	10.6%	-4.8%	-20.1%	-9.8%	0.9%	4.9%	15.0%	-14.6%	6.9%
StopGo reporter	-11.6%	46.8%[activator]	?	-23.5%	-13.0%	4.2%	-6.5%	-23.7%	-14.4%	4.3%

57) COc1cccc(-c2ccc(CN3C(C)C(=O)N(Cc4cn(Cc5ccco5)nn4)CCS3(=O)=O)cc2)c1OC (stereo not drawn)
58) CC(C)(C)OC(=O)N1CCC(C(=O)Nc2cccc(C(=O)NC3CC3)c2)CC1
59) Cn1ccc2c(-c3ccc(C(N)=O)cc3)cc3c(c21)C1CCC3O1 (stereo not drawn)
60) C=CCN(CC=C)Cc1cc(=O)oc2ccc3ccccc3c12

assay / compound	57	58	59	60
SARS PLP yeast	/	/	/	/
Lassa entry inh	?	?	?	?
RE007 growth inh	-1.2%	3.4%	7.8%	-26.8%
StopGo reporter	-18.7%	-8.6%	-10.9%	13.9%

# The list goes on.
cpd	canonical_smiles	SARS PLP yeast	Lassa entry inh	RE007 growth inh	StopGo reporter
61	O=C(c1ccco1)N1CCN(C2CN(Cc3ccc([N+](=O)[O-])cc3)S(=O)(=O)C2)CC1 (stereo not drawn)	/	-9.4%[46.1 µM]	0.0%	?
62	COc1ccc([C@H]2C[C@H](O)[C@@H](n3cc(-c4ccc(F)cc4)nn3)CN2C(=O)c2cccs2)cc1	/	1.8%[46.1 µM]	13.9%	-23.6%
63	CC(=O)c1ccc(OCc2cn(CC(=O)c3ccc(O)cc3)nn2)cc1	/	4.5%[46.1 µM]	-4.3%	16.8%
64	COc1ccc(NC(=O)C[C@H]2C(=O)N(c3ccc(OC)cc3)C[C@@H]2C)cc1	/	?	0.6%	-15.3%
65	Cc1ccc2c(CN3CCN(c4ccc(Cl)c(Cl)c4)CC3)cc(=O)oc2c1	/	?	-9.6%	0.0%
66	CC1C(=O)N(Cc2cn(Cc3ccco3)nn2)CCS(=O)(=O)N1Cc1ccc(-c2ccncc2)cc1 (stereo not drawn)	/	-20.2%[46.1 µM]	-1.7%	0.0%
67	CCN(CC)c1cc2c(c3c1ccn3C)C1CCC2O1 (stereo not drawn)	/	?	-2.4%	-11.5%
68	CCCCN1C[C@H](CO)Oc2cccc(F)c2S1(=O)=O	/	?	4.5%	-6.1%
69	CN(C)CCN1CCN(C2CN(Cc3ccc(F)cc3)S(=O)(=O)C2)CC1 (stereo not drawn)	/	-2.4%[46.1 µM]	6.7%	-8.9%
